Bioassay records from PubChem.
FGF22 binding – shifts melting point of recombinant human FGF22; Q9HCT0; recombinant FGF22 thermal shift, SYPRO orange fluorescence; percent of sucrose octasulfate shift, DMSO zero; calls only at 9.99 µM; 340,000 compounds, 1.5% hits; AID 651658;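 active = melting point raised past a set limit in the mean and every replicate; three in four hits are not shown here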
HNF4A DNA FP – change in binding of human HNF4 alpha to DNA | activity change, % at 10 µM | AID 1224865 | HNF4a-FITC DNA binding, fluorescence polarization, 1 h | 360,000 compounds, 0.3% hits; in the data active = activity change above about 30%, passing the limit was not always enough;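 note: controls were the assay level and a saturating level of protein; the project sought stronger binding though the title names inhibitors; some compounds called inactive have numbers as strong as hits; positive values seem to mean higher polarization but the record does not say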
ALR H2O2 inh – blocks human ALR sulfhydryl oxidase activity. 290,000 compounds, 3.8% hits. purified ALR, DTT oxidation, H2O2 HRP-luminol luminescence. inhibition, % (no concentration beside the values);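 active = mean and each replicate at 75% or more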;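 note: stock transfer was 7.5 nL into about 7.5 µL; 0% = neutral wells and 100% = wells with inactivated enzyme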
Ecoli growth – inhibitors of Escherichia coli growth; OD600, 23 h; active compounds read low; OD600 absorbance (concentration not given with the values); 330,000 compounds, 0.21% hits;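 active = OD600 absorbance below the run mean of sample wells minus 3.6 SD, in any replicate, cut at about 0.56 in these data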;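 note: stock transfer was 300 nL into about 60 µL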
B2AR ag – activates human beta-2 adrenergic receptor causing internalization. P07550. Am2.2-beta2AR cells, FAP receptor internalization, flow cytometry; reference of the scale not given here. response, % (test concentration not listed). 340,000 compounds, 0.43% hits;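 active = response above a set limit, near 3 SD of response in nonfluorescent compounds, cut at about 42% in these data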;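 note: stock transfer was 100 nL into about 11 µL; a reference agonist was the positive control; negative values mostly stem from fluorescent compounds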
LANA-H2A inh – blocks KSHV LANA binding to histone H2A/H2B. Q9QR71. cell-free LANA-H2A/H2B peptide, fluorescence polarization. inhibition, % (concentration not given with the values). 320,000 compounds, 0.6% hits; in the data active = inhibition mostly above about 10%, no sharp cut-off; inactive = mostly below about 6.7%;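 note: stock transfer was 7.5 nL into about 10 µL; 0% = median of vehicle wells and 100% = median of positive control wells; one replicate is shown; the record names a cut of 25% in any replicate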
Target sequence (Q9QR71 whole entry, looked up): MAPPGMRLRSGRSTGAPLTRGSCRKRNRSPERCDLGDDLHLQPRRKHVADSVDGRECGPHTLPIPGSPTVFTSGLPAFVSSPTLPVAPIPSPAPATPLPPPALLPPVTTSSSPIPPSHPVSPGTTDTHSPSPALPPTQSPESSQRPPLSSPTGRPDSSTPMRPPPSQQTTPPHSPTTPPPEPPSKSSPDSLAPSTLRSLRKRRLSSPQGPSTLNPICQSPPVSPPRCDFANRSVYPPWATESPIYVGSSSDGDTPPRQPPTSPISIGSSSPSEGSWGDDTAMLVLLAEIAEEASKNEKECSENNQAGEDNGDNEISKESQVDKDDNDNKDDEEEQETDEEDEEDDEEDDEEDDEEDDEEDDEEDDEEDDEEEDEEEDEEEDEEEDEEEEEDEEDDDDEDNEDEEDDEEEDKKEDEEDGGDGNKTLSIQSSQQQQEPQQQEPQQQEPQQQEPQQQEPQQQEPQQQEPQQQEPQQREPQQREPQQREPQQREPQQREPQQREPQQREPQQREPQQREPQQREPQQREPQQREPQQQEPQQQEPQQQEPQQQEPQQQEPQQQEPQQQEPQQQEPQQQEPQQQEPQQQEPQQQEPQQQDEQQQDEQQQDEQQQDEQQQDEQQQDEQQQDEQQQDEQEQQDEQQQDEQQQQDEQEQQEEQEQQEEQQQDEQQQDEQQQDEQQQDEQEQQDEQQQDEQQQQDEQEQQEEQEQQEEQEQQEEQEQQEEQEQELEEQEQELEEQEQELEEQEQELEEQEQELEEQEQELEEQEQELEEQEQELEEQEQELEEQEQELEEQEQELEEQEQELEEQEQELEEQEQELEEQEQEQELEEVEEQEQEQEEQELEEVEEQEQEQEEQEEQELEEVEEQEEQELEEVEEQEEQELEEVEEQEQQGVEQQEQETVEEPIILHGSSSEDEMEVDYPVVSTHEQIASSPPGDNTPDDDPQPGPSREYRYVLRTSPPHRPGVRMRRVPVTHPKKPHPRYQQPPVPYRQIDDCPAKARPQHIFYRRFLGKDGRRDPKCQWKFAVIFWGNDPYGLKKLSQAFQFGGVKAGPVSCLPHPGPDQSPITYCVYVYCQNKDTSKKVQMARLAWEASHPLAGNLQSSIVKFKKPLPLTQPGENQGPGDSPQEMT
UCH37 DUB inh – inhibitors of human deubiquitinating enzyme UCH37; purified proteasome/UCH37, Ub-AMC cleavage fluorescence; Q9Y5K5; 330,000 compounds, 0.33% hits; inhibition, % (test concentration not listed);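 active = mean of two replicates above 20%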;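 note: 0% = compound-free wells with enzyme and 100% = wells lacking proteasome; stock transfer was 100 nL into about 20 µL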
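System: Proteasome-associated human UCH37 deubiquitinase; Input: 0.15 nM proteasome in added enzyme buffer; Also added: Ub-AMC substrate from 1 µM stock; Incubation: 30 min compound-proteasome preincubation then 25 min substrate reaction, room temperature; Detection: fluorescence, ex 355 nm, em 460 nm; Read-out: % inhibition of Ub-AMC cleavage fluorescence; Benchmarks: no-proteasome and no-compound wells.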
An asterisk follows results filed as active. These rows are one share of the data; rates above refer to the full screens.

Cc1ccc2c(c1)C(c1ccccc1)N(C(=O)c1ccc(S(=O)(=O)N3CCOCC3)cc1)CC(=O)N2 (centres undefined) was read as HNF4A DNA FP -2.8, ALR H2O2 inh -1, Ecoli growth 0.69, B2AR ag -10, LANA-H2A inh 1.5 and UCH37 DUB inh 4.5.
CCc1nnc(NC(=O)CSc2nnc(-c3ccc(NS(=O)(=O)c4ccccc4)cc3)o2)s1 was read as FGF22 binding inactive, HNF4A DNA FP -0.8, ALR H2O2 inh -9, Ecoli growth 0.66, B2AR ag 11, LANA-H2A inh -0.4 and UCH37 DUB inh 6.3.
`Cc1ccc(S(=O)(=O)NCCC(=O)N2CCN(C/C=C/c3ccccc3)CC2)cc1` gave FGF22 binding inactive, HNF4A DNA FP 2.7, ALR H2O2 inh -8, Ecoli growth 0.66, B2AR ag 6, LANA-H2A inh -11 and UCH37 DUB inh 1.2.
`COC(=O)c1ccc(C)c(-n2c(C)cc(C=O)c2C)c1` gave HNF4A DNA FP -1.0, ALR H2O2 inh 8, Ecoli growth 0.69, B2AR ag 3, LANA-H2A inh 0.6 and UCH37 DUB inh -0.2.
For O=C(Nc1cc(F)ccc1F)c1cccc(-n2cnnn2)c1 the results were HNF4A DNA FP 1.9, ALR H2O2 inh -2, Ecoli growth 0.66, B2AR ag -3, LANA-H2A inh 3.3 and UCH37 DUB inh 1.0.
CCN1CCc2nc3ccccc3c(C(=O)Nc3ccc(F)cc3)c2C1 was read as FGF22 binding inactive, HNF4A DNA FP -2.5, ALR H2O2 inh 0, Ecoli growth 0.69, B2AR ag 8, LANA-H2A inh 4.3 and UCH37 DUB inh -3.4.
Screening CCN(CC)CCn1c(SCC(=O)NCc2ccccc2)nc2c(sc3ccccc32)c1=O returned HNF4A DNA FP -1.8, ALR H2O2 inh 97*, Ecoli growth 0.72, B2AR ag -5, LANA-H2A inh -5.2 and UCH37 DUB inh -19.
Cn1ccnc1SCC(=O)c1ccc(O)cc1 was read as FGF22 binding inactive, HNF4A DNA FP -2.6, ALR H2O2 inh 54, Ecoli growth 0.69, B2AR ag -5, LANA-H2A inh -3.2 and UCH37 DUB inh 5.3.
Screening C/C(=N\NC(=O)c1ccc(C(=O)N/N=C(\C)c2ccco2)o1)c1ccco1 returned FGF22 binding inactive, HNF4A DNA FP 2.0, ALR H2O2 inh 0, B2AR ag -13 and LANA-H2A inh -2.3.
Screening CCC(Oc1ccccc1OC)C(=O)Nc1ccc2c(c1)OCCO2 (centres undefined) returned FGF22 binding inactive, HNF4A DNA FP 1.3, B2AR ag -2 and LANA-H2A inh -3.3.
For COC(=O)c1sc(=S)n(-c2ccccc2OC)c1N the results were HNF4A DNA FP -3.5, ALR H2O2 inh -5, Ecoli growth 0.7, B2AR ag 2, LANA-H2A inh 5.8 and UCH37 DUB inh 4.4.
Cc1ccc(C)c(N2CCN(C(=O)c3ccc4c(=O)n5c(nc4c3)CCCCC5)CC2)c1 was read as FGF22 binding inactive, HNF4A DNA FP 3.0, Ecoli growth 0.73, B2AR ag -8 and UCH37 DUB inh 5.4.
COc1ccc(N2CCN(CCNC(=O)Nc3cccc(C)c3C)CC2)cc1 was read as FGF22 binding inactive, HNF4A DNA FP 1.6, ALR H2O2 inh 8, Ecoli growth 0.62, B2AR ag -1, LANA-H2A inh -3.3 and UCH37 DUB inh 0.8.
`O=C(c1ccccc1Br)N1CCN(Cc2ccc3c(c2)OCO3)CC1` gave FGF22 binding inactive, HNF4A DNA FP 1.7, Ecoli growth 0.62, B2AR ag 4, LANA-H2A inh -3.4 and UCH37 DUB inh 5.9.
For COc1ccc(NC(=O)CS(=O)c2cccc(Cl)c2)cc1 (centres undefined) the results were FGF22 binding inactive, HNF4A DNA FP 2.8, ALR H2O2 inh -10, Ecoli growth 0.71, B2AR ag -3, LANA-H2A inh -2.4 and UCH37 DUB inh 5.4.
COc1cccc(-c2c(C(=O)N/N=C(\C)c3ccco3)nnn2-c2nonc2N)c1 was read as FGF22 binding inactive, HNF4A DNA FP -5.1, ALR H2O2 inh 15, B2AR ag -8 and LANA-H2A inh 7.2.
Screening C1=C(c2ccccc2)Nc2nnnn2C1 returned HNF4A DNA FP -0.8, ALR H2O2 inh -2, Ecoli growth 0.77, B2AR ag 5, LANA-H2A inh 1.3 and UCH37 DUB inh -197.
`Cc1cc(C)nc(NS(=O)(=O)c2ccc(NC(=O)CSc3nc(-c4ccccc4)c(C#N)c(=O)[nH]3)cc2)n1` gave FGF22 binding inactive, HNF4A DNA FP -3.0, ALR H2O2 inh 99*, Ecoli growth 0.67, B2AR ag -1, LANA-H2A inh 1.3 and UCH37 DUB inh 7.5.
CSc1cccc(NS(=O)(=O)c2ccc(C(C)=O)cc2)c1 was read as FGF22 binding inactive, HNF4A DNA FP -3.3, ALR H2O2 inh -6, Ecoli growth 0.66, B2AR ag 2, LANA-H2A inh 2.8 and UCH37 DUB inh 1.2.
Screening CCOC(=O)c1c(NC(=O)C2=C(C)NC(=S)NC2c2ccc(CC)cc2)sc(C)c1C (centres undefined) returned ALR H2O2 inh 7, Ecoli growth 0.7, LANA-H2A inh -3.3 and UCH37 DUB inh -78.

Next part, starting with the last two of the part before.
CSc1cccc(NS(=O)(=O)c2ccc(C(C)=O)cc2)c1 was read as FGF22 binding inactive, HNF4A DNA FP -3.3, ALR H2O2 inh -6, Ecoli growth 0.66, B2AR ag 2, LANA-H2A inh 2.8 and UCH37 DUB inh 1.2.
Screening CCOC(=O)c1c(NC(=O)C2=C(C)NC(=S)NC2c2ccc(CC)cc2)sc(C)c1C (centres undefined) returned ALR H2O2 inh 7, Ecoli growth 0.7, LANA-H2A inh -3.3 and UCH37 DUB inh -78.
For COC(=O)[C@H](CCSC)NS(=O)(=O)c1ccccc1Br the results were FGF22 binding inactive, HNF4A DNA FP -5.3, ALR H2O2 inh 1, B2AR ag -3, LANA-H2A inh 3.9 and UCH37 DUB inh -0.7.
CCn1c(SCc2ccccc2)nc2cc(OC)c(OC)cc2c1=O was read as FGF22 binding inactive, HNF4A DNA FP 0.6, ALR H2O2 inh -3, Ecoli growth 0.71, B2AR ag 18, LANA-H2A inh 1.4 and UCH37 DUB inh 5.4.
For O=C1CCc2cc(S(=O)(=O)N3CCC(C(=O)Nc4nccs4)CC3)ccc2N1 the results were FGF22 binding inactive, HNF4A DNA FP 0.2, ALR H2O2 inh -16, Ecoli growth 0.73, B2AR ag -6, LANA-H2A inh 0.7 and UCH37 DUB inh 4.2.
NC(=O)c1ccc(NC(=O)COC(=O)C2(c3ccccc3F)CCCC2)cc1 was read as FGF22 binding inactive, HNF4A DNA FP -2.5, ALR H2O2 inh 13, Ecoli growth 0.64, B2AR ag -9, LANA-H2A inh 3.7 and UCH37 DUB inh -1.9.
Cn1c(=O)oc2cc(S(=O)(=O)N3CCOCC3)ccc21 was read as HNF4A DNA FP -1.1, ALR H2O2 inh 2, Ecoli growth 0.73, B2AR ag -1, LANA-H2A inh 3.6 and UCH37 DUB inh -4.4.
CCOC(=O)c1ccc(CC2S/C(=C(\C#N)C(C)=O)NC2=O)cc1 (centres undefined) was read as HNF4A DNA FP 1.0, ALR H2O2 inh 60, Ecoli growth 0.69, B2AR ag -3, LANA-H2A inh 0.1 and UCH37 DUB inh 5.3.
`Cc1[nH]c(C)c(S(=O)(=O)N2CCC(C)CC2)c1C(=O)N1CCCC1` gave FGF22 binding inactive, HNF4A DNA FP -1.3, ALR H2O2 inh -9, Ecoli growth 0.61, B2AR ag 1, LANA-H2A inh 7.7 and UCH37 DUB inh 0.7.
`N#C/C(=C\c1ccc(Cl)cc1)c1n[nH]c(Cn2cncn2)n1` gave HNF4A DNA FP -2.2, ALR H2O2 inh 68, B2AR ag -4, LANA-H2A inh -2.1 and UCH37 DUB inh 1.5.
Screening c1ccc(-c2nc(NCc3cccs3)c3ccccc3n2)cc1 returned FGF22 binding inactive, HNF4A DNA FP 0.5, ALR H2O2 inh -1, Ecoli growth 0.68, B2AR ag -5, LANA-H2A inh -0.3 and UCH37 DUB inh 3.5.
For CN(C)C(=O)c1ccc(NC(=O)COC(=O)CC23CC4CC(CC(Br)(C4)C2)C3)cc1 the results were FGF22 binding inactive, HNF4A DNA FP 2.5, ALR H2O2 inh -3, Ecoli growth 0.64, B2AR ag -10, LANA-H2A inh 11 and UCH37 DUB inh 3.8.
CCCC(=O)NC1CCCc2c1cnn2-c1ccc(C)c(C)c1 (centres undefined) was read as FGF22 binding inactive, HNF4A DNA FP 1.4, ALR H2O2 inh -1, Ecoli growth 0.69, B2AR ag 3, LANA-H2A inh 3.2 and UCH37 DUB inh -1.3.
Cc1ccc(S(=O)(=O)N2CCCOC2CNC(=O)C(=O)NCCCn2ccnc2)cc1 (centres undefined) was read as FGF22 binding inactive, HNF4A DNA FP 2.7, ALR H2O2 inh -4, Ecoli growth 0.73, B2AR ag -4, LANA-H2A inh -0.5 and UCH37 DUB inh 1.9.
Screening O=S(=O)(Nc1ccc(N=Nc2ccccc2)cc1)c1ccccc1 returned HNF4A DNA FP 2.6, ALR H2O2 inh -1, Ecoli growth 0.7, B2AR ag -5, LANA-H2A inh 2.5 and UCH37 DUB inh 3.8.
`CC([NH2+][O-])C(C)(C)NO` (centres undefined) gave HNF4A DNA FP 3.4, ALR H2O2 inh 2, Ecoli growth 0.73, B2AR ag -1, LANA-H2A inh 1.6 and UCH37 DUB inh -3.6.
`Cc1ccc(CN(C)c2ccc(S(=O)(=O)N3CCCC3)cn2)cc1` gave FGF22 binding inactive, HNF4A DNA FP 0.8, ALR H2O2 inh 2, B2AR ag -3 and LANA-H2A inh -3.7.
For CC(C)n1c(SC2CCOC2=O)nc2ccccc21 (centres undefined) the results were HNF4A DNA FP -2.8, ALR H2O2 inh -7, Ecoli growth 0.72, B2AR ag -7, LANA-H2A inh -0.3 and UCH37 DUB inh 1.7.
`O=C(NCC(=O)N(CC1CCCO1)C(C(=O)NC1CCCCC1)c1ccccc1)c1cccs1` (centres undefined) gave FGF22 binding inactive, HNF4A DNA FP -3.2, ALR H2O2 inh 19, Ecoli growth 0.65, B2AR ag -21, LANA-H2A inh 4.1 and UCH37 DUB inh 1.5.
Screening N#Cc1ccsc1NC(=O)COC(=O)CCCSc1nc2ccccc2s1 returned HNF4A DNA FP 8.5, ALR H2O2 inh -5, Ecoli growth 0.68, B2AR ag 9, LANA-H2A inh 4.5 and UCH37 DUB inh 2.4.
`Cc1ccc(NC(=S)N(CCN2CCOCC2)Cc2cc3cc4c(cc3[nH]c2=O)OCO4)cc1` gave FGF22 binding inactive, HNF4A DNA FP 3.6, ALR H2O2 inh -1, Ecoli growth 0.7, B2AR ag 6, LANA-H2A inh -1.4 and UCH37 DUB inh -20.
C[C@@H](C(=O)N[C@@H](Cc1ccccc1)C(=O)O)n1nnc2ccccc2c1=O was read as FGF22 binding inactive, HNF4A DNA FP 1.7, ALR H2O2 inh 1, Ecoli growth 0.69, B2AR ag 9, LANA-H2A inh 1.0 and UCH37 DUB inh 1.9.
`Cc1ccc(C)c(S(=O)(=O)N2C(=S)NC(=O)C2CC(C)C)c1` (centres undefined) gave HNF4A DNA FP 2.2, ALR H2O2 inh 35, Ecoli growth 0.67, B2AR ag 7, LANA-H2A inh 2.8 and UCH37 DUB inh 3.4.
For C=CCn1c(SCC(C)=O)nc2sc3c(c2c1=O)CCC3 the results were FGF22 binding inactive, HNF4A DNA FP -2.0, Ecoli growth 0.65, B2AR ag 2, LANA-H2A inh 0.2 and UCH37 DUB inh 4.2.
Screening COC(=O)CC1C(=O)NCCN1C(=S)Nc1cc(C)cc(C)c1 (centres undefined) returned HNF4A DNA FP 4.0, ALR H2O2 inh -10, Ecoli growth 0.65, B2AR ag 0, LANA-H2A inh 3.0 and UCH37 DUB inh 2.4.
`O=S(=O)(c1ccccc1)N1CCN(C(=S)Nc2ccc(F)cc2)CC1` gave HNF4A DNA FP -1.5, ALR H2O2 inh -4, Ecoli growth 0.69, B2AR ag -4, LANA-H2A inh -4.0 and UCH37 DUB inh 1.5.
